# Compound activity as filed in PubChem.
# YjeE inh = qHTS Assay for Inhibitors of YjeE; tRNA threonylcarbamoyladenosine biosynthesis protein TsaE (Escherichia coli (strain …; purified YjeE, fluorescence polarisation of a bound ADP probe; Potency, µM; hit rate 0.05% among 71,000; active = well fitted falling curve; inconclusive = weaker or top-dose-only fall, or a rising curve; inactive = flat or poorly fitted curve;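 further: top concentration of the series not given in the record; excess ADP was the control for the full effect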
#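 Fluorescence polarization of a BODIPY Texas Red–ADP probe (2 uM) bound to purified YjeE (10 uM) was read after 15 min room-temperature incubation with compounds. Loss of polarization marks inhibitors; ADP serves as titrated control.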
# PK Bst = Pyruvate Kinase; partly purified Bacillus stearothermophilus pyruvate kinase, luminescence ATP production; ribose 5-phosphate activator present at AC10; Potency, µM; hit rate 1.2% among 51,000; AID 361, 2006; in the data active means potency below about 11 µM; inconclusive means mostly about 12 µM to 25 µM; inactive means weaker than that;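 the screen sought inhibitors and activators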;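 further: potency means the concentration at half of the fitted maximal effect; scaled between full activation by ribose 5 phosphate and full inhibition by luteolin; about four in five hits inhibit and the cells do not say which; series up to 57 µM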
# * marks the source's active call; other numbers are inactive results; i = inactive; ? = inconclusive; nt = not tested or not shown. Some of the compounds tested (hit frequency here may not be typical).
# Start of the listing, in advance, five compounds:
SMILES,YjeE inh,PK Bst
Cc1c(Cl)cccc1N1C(=O)C2ON(c3ccccc3)C(c3cccnc3)C2C1=O (stereo not drawn),nt,>11.4
CCn1c(CSc2nccn2C)nc2cc(C(=O)O)ccc21,i,>57
N#Cc1ccccc1NC(=O)COC(=O)c1ccc2c(c1)OCCO2,i,>57
Cc1ccc(-c2cc(C(=O)N3CCN(c4ncccn4)CC3)c3ccccc3n2)cc1,i,4.29*
COc1ccc(Cl)cc1N(CC(=O)Nc1ccccc1SC)S(C)(=O)=O,i,>11.4

# The listing, repeating the preview:
SMILES,YjeE inh,PK Bst
Cc1c(Cl)cccc1N1C(=O)C2ON(c3ccccc3)C(c3cccnc3)C2C1=O (stereo not drawn),nt,>11.4
CCn1c(CSc2nccn2C)nc2cc(C(=O)O)ccc21,i,>57
N#Cc1ccccc1NC(=O)COC(=O)c1ccc2c(c1)OCCO2,i,>57
Cc1ccc(-c2cc(C(=O)N3CCN(c4ncccn4)CC3)c3ccccc3n2)cc1,i,4.29*
COc1ccc(Cl)cc1N(CC(=O)Nc1ccccc1SC)S(C)(=O)=O,i,>11.4
CC(C)c1ccc(-c2nc(N3CCCC3)nc3n[nH]c(N)c23)cc1,i,>57
COc1cccc(C(=O)Nc2c3c(nn2-c2cccc(C)c2C)CS(=O)C3)c1OC (stereo not drawn),i,>57
COc1ccc(-c2nnc3n2-c2ccccc2SC3)cc1OC,i,>57
O=C(CCc1n[nH]c(=O)[nH]c1=O)N1CCOCC1,i,nt
Fc1ccccc1CSc1nnc(Cn2cnc3ccccc32)n1-c1ccccc1,i,>57
Cc1noc(C)c1-c1cc(NCc2cccs2)ncn1,i,nt
CCOc1ccc(N(CC(=O)NCc2ccc(OC)cc2)S(=O)(=O)c2c(C)noc2C)cc1,i,>57
CCOC(=O)Cn1nnc(-c2ccc(SC)cc2)n1,i,>57
Cn1c(=O)[nH]c(=O)c2c1nc(CN1CCN(Cc3ccccc3)CC1)n2CC(N)=O,i,nt
Cc1cccc(Cn2c(NCCO)nc3c2c(=O)n(C)c(=O)n3C)c1,i,>57
Cc1cc2nc(SCC(=O)O)nc(C)c2cc1C,i,>57
COc1ccc(NC(=O)Cn2cccc2)c(OC)c1,i,>57
Cc1ccccc1C(N)=O,i,nt
COc1ccc(Oc2ncc3nc(-c4cccs4)c(=O)n(Cc4cccs4)c3n2)cc1,i,nt
CCCOC(=O)C1[C@H]2C(=O)N(C(C)c3ccc(OC)cc3)C[C@]23C=C[C@H]1O3 (stereo partly drawn),i,>57
Cc1cccc(Nc2ccncc2S(=O)(=O)NC(=O)NC(C)C)c1,i,nt
Cc1ccn2cc(C(=O)Nc3ccccc3N3CCOCC3)nc2c1,i,nt
COCCn1c(SCC(=O)NC(=O)NCc2ccccc2)nc2ccccc21,i,>57
COc1cccc(-c2nn3c(-c4ccccn4)nnc3s2)c1,nt,i
Cc1cc(-c2ccccc2)c2c3c(cn2n1)c(=O)n(C)c(=O)n3C,i,>57
COc1cc(C2C(C#N)=C(C)NC3=C2C(=O)CC(C)(C)C3)ccc1O (stereo not drawn),i,>57
Cc1ccccc1OCC(O)CN (stereo not drawn),i,>57
CCOC(=O)C1CCCN(C(=O)c2cn(C)c3ccc(S(=O)(=O)N4CCCC4)cc3c2=O)C1 (stereo not drawn),i,>57
CCCOC(=O)Cn1c(=O)c2cc3c(=O)n(CC(=O)OCCC)c(=O)c3cc2c1=O,i,>57
O=S(=O)(N=S(N1CCCCC1)N1CCCCC1)c1ccccc1,i,nt
Cc1ccc(OCc2nnc(SCC(=O)Nc3sc(C)c(C)c3C#N)n2C)cc1,i,>57
CCc1ccc(N(CC)c2ncnc3nc[nH]c23)cc1,i,nt
O=C(Nc1ccc(Cl)cc1)C1CC=CCC1C(=O)OCC(F)(F)C(F)F (stereo not drawn),i,>57
O=C(c1ccco1)N1CCN(C(=O)c2ccc(Cn3cc(Br)cn3)o2)CC1,i,>57
COC(=O)c1cc2sc(Cl)cc2n1CC(=O)Nc1cccc(SC)c1,i,>57
N=C(N)SCCc1cccc(CCSC(=N)N)c1,i,nt
O=C(CN1C(=O)c2ccccc2S1(=O)=O)c1ccccc1,nt,i
O=C(NCCC1=CCCCC1)c1cnsn1,i,>57
CCOC(=O)c1c(C)[nH]c(C(=O)OC/C(O)=C(\C#N)c2nc3ccccc3[nH]2)c1C,i,>11.4
O=C(Nc1ccc(-c2nc3ccccc3[nH]2)cc1)C1CCCO1 (stereo not drawn),i,3.18*
O=C(c1cccc(F)c1)N1CCC2(CC1)CN(c1ccc(-c3ccccc3)cc1)C2,i,nt
Cn1c(=O)c2c(ncn2CN2CCN(Cn3cnc4c3c(=O)n(C)c(=O)n4C)CC2)n(C)c1=O,i,nt
CCCC(=O)N(c1ccc(F)cc1)C1C=CS(=O)(=O)C1 (stereo not drawn),i,>57
c1ccc(-c2noc(CSc3nnc(Cc4cccs4)n3-c3ccccc3)n2)cc1,i,>57
CCCCNC(=O)C1C2C=CC3(CN(Cc4ccc(C)cc4)C(=O)C13)O2 (stereo not drawn),i,>57
COc1ccc(OCC(=O)OCC(=O)Nc2ccc(S(=O)(=O)N3CCCCC3)cc2)cc1,i,>57
CN1CCC[C@@H]1CCO[C@](C)(c1ccccc1)c1ccc(Cl)cc1,i,nt
CC(=O)n1nc(-c2ccccc2)nc1NCc1ccc(F)cc1,i,>57
COc1ccc(C2/C(=C(/O)c3cnn(-c4ccccc4)c3C)C(=O)C(=O)N2CCN(C)C)cc1OC (stereo not drawn),nt,>25.6
COc1cccc(-c2csc(N3CCN(C(=O)Nc4ccccc4OC)CC3)n2)c1,i,>57

# Following part
SMILES,YjeE inh,PK Bst
O=C1C2ON(c3ccc(Cl)cc3)C(c3ccco3)C2C(=O)N1c1ccccc1 (stereo not drawn),i,>57
O=C(Nc1ccc(CN2CCCCC2)cc1)c1ccc2c(c1)OCO2,i,>57
CNC(=O)CN(C)S(=O)(=O)c1ccc(OC)c(Cl)c1,i,>57
CC(=O)N1CCc2c(sc(NC(=O)c3ccc(S(=O)(=O)N(C)C)cc3)c2C#N)C1,i,nt
CCN(CC)S(=O)(=O)c1ccc(-c2nnco2)cc1,i,>57
N#CC1(c2ccccc2)CCCN1C(=O)c1ccc(Br)o1 (stereo not drawn),i,>57
C=CCn1c(COc2ccccc2)nnc1SCC(=O)NCC(=O)OCC,i,>57
Cc1ccc(S(=O)(=O)N2CCC(C(=O)O)(c3ccccc3)CC2)cc1,i,nt
CCCS(=O)(=O)N1CCC(C(=O)NC2CCCC(C)C2C)CC1 (stereo not drawn),i,>57
Cc1cccc(-c2nnc(N)s2)c1,i,>57
O=[N+]([O-])c1ccc(F)cc1F,i,nt
CCOC(=O)c1ccc(COC(=O)c2cc(=O)[nH]c3ccccc23)o1,i,>57
O=S(=O)(NCCSc1ccccc1)c1ccc2c(c1)OCCO2,i,nt
CCCCNC(=O)CCn1nc(-c2ccccc2)ccc1=O,i,>57
CCCCC(CC)C(=O)NCCc1ccc(S(N)(=O)=O)cc1 (stereo not drawn),i,nt
CCOC(=O)c1cnc2nc(Cc3ccccc3)[nH]n2c1=O,i,>57
O=S1(=O)C=C(Sc2nnc(-c3ccccc3)o2)c2ccccc21,i,>57
COc1ccc(NC2SC(=O)N(CC(=O)O)C2=O)cc1 (stereo not drawn),i,>57
Cc1cc(C)n(S(=O)(=O)c2ccc3ccccc3c2)n1,i,nt
Cc1cc(NC(=O)Nc2ccccc2)n(-c2ccccc2)n1,i,>57

# Exported with bars between the fields: six of the compounds above
Structure | YjeE inh | PK Bst
Cc1ccn2cc(C(=O)Nc3ccccc3N3CCOCC3)nc2c1 | i | nt
COCCn1c(SCC(=O)NC(=O)NCc2ccccc2)nc2ccccc21 | i | >57
COc1cccc(-c2nn3c(-c4ccccn4)nnc3s2)c1 | nt | i
Cc1cc(-c2ccccc2)c2c3c(cn2n1)c(=O)n(C)c(=O)n3C | i | >57
COc1cc(C2C(C#N)=C(C)NC3=C2C(=O)CC(C)(C)C3)ccc1O (stereo not drawn) | i | >57
Cc1ccccc1OCC(O)CN (stereo not drawn) | i | >57

# (next part)
SMILES,YjeE inh,PK Bst
O=C(NS(=O)(=O)c1ccccc1)c1ccccc1F,i,>57
COc1ccc(Cn2c(-c3ccco3)nc3oc4ccccc4c(=O)c3c2=O)cc1,i,>57
C=CCOC(=O)C1=C(C)Nc2nc3ccccc3n2C1c1ccncc1 (stereo not drawn),i,>57
Clc1ccccn1,i,nt
Cc1nnc(SCC(=O)NCCc2ccccc2)[nH]c1=O,i,>57
CCn1c(=O)cc(O)c2c(=O)n(C)c(=O)n(C)c21,i,>57
CN(C)S(=O)(=O)c1cccc(C(=O)Nc2cc(Cl)ccc2O)c1,?,i
O=c1cc(-c2ccccc2)[nH]c2nc3ccccc3n12,i,1.02*
COc1ccc(CCNC(=O)CN2CCC(n3nnc4cc(F)ccc43)CC2)cc1OC,i,>57
COCCNc1ncnc2ccc(-c3ccccc3OC)cc12,i,nt
CCCc1nnc(SCc2ccc(C(=O)OC)o2)n1N,i,>57
O=c1c2ccccc2sn1-c1ccc(S(=O)(=O)N2CCCC2)cc1,i,>57
COc1ccc(-c2nnc3n2N=C(C)CS3)cc1OC,i,>57
CCOC(=O)CCC(NC(=O)c1cncc(O)c1)C(=O)OCC (stereo not drawn),i,>57
CC1=C(C(=O)Nc2ccccc2C)C(c2ccc(C)o2)C2=C(CCCC2=O)N1 (stereo not drawn),i,>57
COc1ccc(C(=O)OCC(=O)c2ccc(C)c(S(=O)(=O)N3CCOCC3)c2)cc1OC,i,>57
CN(Cc1ccccc1)C(=O)CCS(=O)(=O)c1ccc2c(c1)n(C)c(=O)c(=O)n2C,i,nt
COc1ccc(NC(=O)CSc2nc3c(cc2C#N)CN(C)CC3)cc1,i,>57
COc1ccc(Cn2c(CCC(=O)NCc3ccco3)nc3cccnc32)cc1,i,>57
CCOC(=O)c1c(C)c(C(=O)NCc2ccccc2OC)c(C)n1C,i,>57
O=C(CSc1nnc2ccccn12)c1ccccc1,i,nt
N#Cc1c(-c2ccccc2)nc(N2CCCCCC2)[nH]c1=O,i,>57
CN(Cc1ccccc1)C(=O)c1cccc(NC(=O)c2ccco2)c1,i,>57
O=C(CSc1nnnn1C1CC2CCC1C2)Nc1ccnc2ccccc12 (stereo not drawn),i,>57
CC(C)S,i,nt
Cc1ccc(NC(=O)CSc2nnc(-c3ccncc3)n2N)cc1C,i,>57
COc1ccc(C(=O)N2CCC(C(=O)Nc3ccc(OC)c(OC)c3)CC2)cc1,i,nt
O=C(NCCOc1ccccc1)c1n[nH]c(=O)c2ccccc12,i,>57
c1ccc(-c2nnc(CSc3nnc(-c4ccncc4)n3Cc3ccco3)o2)cc1,i,>57
COc1ccccc1N1CCN(C(=O)c2cc(-c3ccc(Br)cc3)on2)CC1,i,nt
Cc1ccc(CNc2ccc3c(c2)ncn3C)cc1,i,>57
CC(=O)NCCOc1c(C)cc(S(N)(=O)=O)cc1C,i,nt
NCCc1nnc(SCc2ccccc2)o1,i,>57
Cc1ccc(NC(=O)c2cccc(N(C)C)c2)cc1NC(=O)c1ccc(O)cc1,i,nt
Cc1cc(-n2c(C)cc(C(=O)CSc3nc4ccccc4c(=O)n3Cc3ccco3)c2C)no1,i,>57
CCOc1ccccc1NC(=O)CCC(=O)Nc1ccc2nc(N3CCN(C)CC3)cc(C)c2c1,i,>57
CCc1ncc(CO)n1Cc1cccc2ccccc12,i,nt
CCCn1c(N)c(C(=O)CSc2nnc(Cc3ccccc3)o2)c(=O)n(C)c1=O,i,>57
O=c1[nH]c(CSc2ncc(-c3ccc(F)cc3)n2Cc2ccco2)nc2ccccc12,i,>57
CCOc1ccc(N(CC(=O)OC)S(=O)(=O)c2c(C)noc2C)cc1,i,nt
C=CCn1c(SCC(=O)c2ccccc2)nnc1-c1cc2ccccc2o1,i,>57
CCOC(=O)c1c(N)sc2c1CCC1C(=O)N(C3CCCCC3)C(=O)C21 (stereo not drawn),nt,>11.4
CCOC(=O)C(CCOc1cccc(CC)c1)C(=O)OCC,i,nt
CS(=O)(=O)N(CC(=O)N1CCCCC1)C1CCCCC1,i,>57
CCCn1c(=NC(=O)c2ccncc2)c(C(=O)OCC)cc2c(=O)n3cccc(C)c3nc21,i,>57
O=C(NCc1cccs1)c1cnn2cccnc12,i,>57
O=C(Nc1nccs1)C1C2/C=C\CCCCC21 (stereo not drawn),i,>57
O=C(NCCc1cccc(F)c1)[C@@H]1CSC2c3ccccc3C(=O)N21 (stereo partly drawn),i,>57
OCC1(CO)COC2(CCCC2)N1,i,>57
O=C(c1cc2ccccc2oc1=O)N(Cc1ccc2c(c1)OCO2)Cc1ccco1,i,>57

# New compounds follow.
SMILES,YjeE inh,PK Bst
CCc1nc(N)nc2c1C(=O)CC(C)(C)C2,i,nt
CS(=O)(=O)N1CCC(C(=O)NCc2ccco2)CC1,i,>57
Cc1c(C(=O)NN2CCOCC2)nn(-c2ccc(Cl)cc2Cl)c1-c1ccc(I)cc1,i,nt
N#Cc1ccc(Oc2ccc(C(N)=O)cc2)cc1C#N,i,>57
COCCn1c(=O)c(C)nc2cnc(OC)nc21,i,nt
CCCCCCOC(=O)C(C#N)c1nc2ccccc2nc1N1CCCCC1 (stereo not drawn),i,>57
Cc1cc(C)cc(NC(=O)NCc2nnc(SCc3ccccc3)n2C)c1,i,>57
COC(=O)N1CCC2(CC1)CCN(c1ccccn1)CC2,i,nt
O=C(Cn1nc(C(F)(F)F)c2c1CCCC2)NCCN1CCOCC1,i,>57
CN(C)CC(CN(C)C)c1ccccn1,i,nt
